Screening results from PubChem BioAssay.
Measles inh = inhibitors of measles virus growth in infected cells | infected Vero cells, GFP fluorescence, 64 h; stronger effect = lower value | hit rate 0.1% among 33,000 | z-score (no concentration beside the values);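 active = z-score under -3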;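 note: score is relative to mean and SD of the compound wells of a plate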
The depositor's hits bear a star. The list is partial; rates above refer to the full screens.

No.	Structure	Measles inh
1	COC(=O)c1c(NC(=O)CCCC(=O)O)sc2c1CCC(C)C2 (centres undefined)	1.54
2	CCC1(C)Nc2ccccc2C(=O)N1c1ccc(Cl)cc1 (centres undefined)	1.88
3	CCOC(=O)c1sc(Nc2ccccc2)nc1-c1ccc([N+](=O)[O-])cc1	-0.07
4	O=C(c1ccc2nc3sc4c(c3c(=O)n2c1)CCCC4)N1CCN(c2cccc(C(F)(F)F)c2)CC1	1
5	C=CCn1c(SCC(=O)c2cccc3ccccc23)nnc1-c1ccc(OC)cc1	-1.09
6	CCN(C(=O)c1cc2cc3ccc(OC)cc3nc2o1)c1ccc(C)c(C)c1	1.64
7	Cc1ccc2c(c1)C(c1ccccc1)N(C(=O)c1ccc(OC(C)C)cc1)CC(=O)N2 (centres undefined)	1.15
8	Cc1cc(Cl)ccc1NC(=O)C1CC(=O)NC(Nc2nc3ccccc3s2)=N1 (centres undefined)	0.64
9	COc1ccccc1N1C(=O)C2C(c3cccc(OC)c3O)NC(CC(C)C)(C(=O)O)C2C1=O (centres undefined)	0.21
10	O=C(CSc1ccc2ccccc2c1)Nc1cccc(C(F)(F)F)c1	-1.54
11	CCOC(=O)c1cnc2c(C)cc(C)cc2c1Nc1ccc(N(C)C)cc1	1.65
12	O=C1NC(=S)C(=Cc2ccccc2O)S1	0.04
13	Cc1ccc(NC2=CC(=NS(=O)(=O)c3ccc(F)cc3)c3ccccc3C2=O)cc1	-0.35
14	O=c1oc2cc(OCc3cccc(Cl)c3)ccc2c2c1CCCC2	0.9
15	Cc1cc(C)c(NC(=O)CSc2nc3ccccc3n2C)c(C)c1	1.32
16	CCCc1cc(=O)[nH]c(SCC(N)=O)n1	0.61
17	CC(=O)N1CCc2cc(S(=O)(=O)NC(CC(C)C)C(=O)N3CCCC3)ccc21 (centres undefined)	0.62
18	O=C1CCCc2c1[nH]c1ccc(OCc3ccccc3)cc21	0.98
19	Cc1ncc(CO)c2cc(C(=O)Nc3ccc(Cl)cc3)c(=O)oc12	-0.16
20	O=C1CN(C(=O)c2ccc(S(=O)(=O)N3CCCCC3)cc2)C(c2ccc(F)cc2)c2cc(Cl)ccc2N1 (centres undefined)	0.74

The closing two entries of the part before lead into the next:
No.	Structure	Measles inh
19	Cc1ncc(CO)c2cc(C(=O)Nc3ccc(Cl)cc3)c(=O)oc12	-0.16
20	O=C1CN(C(=O)c2ccc(S(=O)(=O)N3CCCCC3)cc2)C(c2ccc(F)cc2)c2cc(Cl)ccc2N1 (centres undefined)	0.74
21	CCOC(=O)c1sc(NC(=O)C(CC)Sc2nc3ccccc3[nH]2)nc1C (centres undefined)	-0.44
22	CC(C)CC(C(=O)Nc1ccccc1C(C)C)N1C(=O)c2ccccc2C1=O (centres undefined)	0.36
23	O=C1NC(=Nc2ccccc2)SC1(CO)CO	3.77
24	Cc1ccc(C(=O)O)cc1NC(=O)c1ccnn1C	-0.05
25	Cc1nn(-c2nc(-c3ccccc3)cc(C(F)(F)F)n2)c(C)c1Cl	0.05
26	O=C(CC1SC(=O)N(c2ccccc2)C1=O)Nc1ccc(Cl)cc1 (centres undefined)	-0.27
27	CCCCCN1C2=C(C(=O)CC(C)(C)C2)C(c2ccc(Cl)c([N+](=O)[O-])c2)C2=C1CC(C)(C)CC2=O	-1.01
28	CCc1ccccc1NC(=O)c1cc2c(=O)n3cccc(C)c3nc2s1	-0.95
29	O=C(CSc1cn(Cc2ccccc2Cl)c2ccccc12)Nc1nccs1	0.1
30	CC(O)C(NCCC(=O)c1ccc(F)cc1)C(=O)O (centres undefined)	-1.02
31	O=C(Nc1nccs1)c1cccc(Oc2ccc([N+](=O)[O-])cc2)c1	0.1
32	O=C1c2ccc(-c3nc4ccccc4c(=O)o3)cc2C(=O)N1CC1CCCO1 (centres undefined)	0.58
33	O=C(Nc1cccc(Cl)c1)c1ccc(CN(c2ccccn2)S(=O)(=O)c2ccccc2)cc1	-0.06
34	CCn1c(=NC(=O)c2ccc(S(=O)(=O)N3CC(C)OC(C)C3)cc2)sc2ccccc21 (centres undefined)	-0.71
35	COc1ccc(Cn2c(SCc3cc(=O)n4cc(Cl)ccc4n3)nc3ccc(N4CCOCC4)cc3c2=O)cc1	1.04
36	Cc1ccc(Nc2nnc(-c3cc4ccccc4oc3=O)s2)cc1	-0.68
37	COc1ccc(-n2nc3ccc(NC(=O)COc4ccccc4)cc3n2)cc1	1.23
38	O=C(Cn1c2ccccc2c(=O)c2cc([N+](=O)[O-])ccc21)Nc1cccc(C(F)(F)F)c1	0.72
39	Cc1cccc(C)c1NC(=O)C1(NC(=O)c2cnccn2)CCCCC1	-0.96
40	CC(C)c1cc(C(C)C)c(S(=O)NCCCN2CCOCC2)c(C(C)C)c1 (centres undefined)	-1.05

Other results follow.
No.	Structure	Measles inh
41	CCOC(=O)c1cnc2ccc(OCC)cc2c1Nc1ccccc1C(=O)OC	-0.3
42	CN1C(=O)CC(C(=O)Nc2ccc(C(=O)O)cc2)SC1=Nc1ccc(Cl)cc1 (centres undefined)	-0.75
43	COc1ccc(S(=O)(=O)N2CCC(C(=O)N3CCN(c4ccccc4)CC3)CC2)cc1	1.92
44	Cc1cccc(C(=O)N2N=C(C(F)(F)F)CC2(O)c2cccc([N+](=O)[O-])c2)c1 (centres undefined)	-0.46
45	CC1CCCN(CCCNS(=O)(=O)c2ccc3c(c2)CCN3C(=O)C2CC2)C1 (centres undefined)	-0.73
46	CCOC(=O)c1c(NC(=O)C(C)C)sc2c1CCC2	-1.67
47	CCOc1cc([N+](=O)[O-])cc(C=Nc2ccc3oc(-c4cccc(C)c4)nc3c2)c1O	0.03
48	c1csc(C2=Nn3c(nnc3-c3ccc4c(c3)OCO4)SC2)c1	-0.2
49	COCCNc1nc(SCc2ccc([N+](=O)[O-])cc2)nc2ccccc12	-0.59
50	O=C(CN1C(=O)c2ccccc2C1=O)Nc1cc(Cl)ccc1C(=O)O	0.02
51	CC(C)OC(=O)c1c(NC(=O)CSc2nncn2C)sc2c1CCCC2	1.56
52	NC(=O)c1ccc(NC(=O)CN2CCN(C(=O)c3ccco3)CC2)cc1	-1.17
53	O=C(Nc1ccc(F)c([N+](=O)[O-])c1)c1ccc(-c2ccccc2)o1	-0.52
54	CC(NC(=O)CCN1C(=O)c2ccccc2C1=O)c1ccccc1 (centres undefined)	0.11
55	O=C(NCc1ccccc1)c1ccc2c(=O)n(-c3ccccc3)c(=O)[nH]c2c1	-0.07
56	CC(=O)c1ccc(NC(=O)C2CC3c4ccccc4C2c2ccccc23)cc1 (centres undefined)	-1.24
57	Cc1cc(=O)oc2cc3occ(-c4ccccc4)c3cc12	-0.33
58	CCCCCn1c(=S)[nH]c2cc(C(=O)OC)ccc2c1=O	1.75
59	CCCN1CNC(=S)N(c2cccc(C)c2C)C1	-0.46
60	C=C(C)Cn1c(C=Cc2ccccc2)nc2ccccc21	0.04

Exported with the structure last: entries from further up
# | Measles inh | smiles
47 | 0.03 | CCOc1cc([N+](=O)[O-])cc(C=Nc2ccc3oc(-c4cccc(C)c4)nc3c2)c1O
48 | -0.2 | c1csc(C2=Nn3c(nnc3-c3ccc4c(c3)OCO4)SC2)c1

Going on with the list.
No.	Structure	Measles inh
61	CCOc1ccccc1C(=O)Nc1cc(C)c2c(=O)oc3ccccc3c2n1	-0.45
62	COCCNC(=O)c1cc(-c2ccc(F)cc2)nc2ccccc12	1.47
63	NS(=O)(=O)c1ccc(CCNC(=O)CSC2=Nc3ccccc3C3=NC(c4ccccc4)C(=O)N23)cc1 (centres undefined)	0.83
64	COc1ccc(C2CC(C(F)(F)F)n3ncc(C(=O)Nc4ccc(C(C)O)cc4)c3N2)cc1OC (centres undefined)	1.48
65	Cc1ccc(OCC(=O)OCCN2CCOCC2)cc1	-0.67
66	O=C1CCCC2=C1C(c1cccc([N+](=O)[O-])c1)n1ncnc1N2 (centres undefined)	-1.47
67	O=c1c2ccccc2[nH]c(=S)n1Cc1cccc(Br)c1	-1.98
68	Cc1ccc(CN2C(=O)C(C(C)C(=O)O)Sc3ccccc32)cc1 (centres undefined)	-0.79
69	Oc1cc(OCc2ccccc2)ccc1-c1[nH]ncc1-c1ccccc1	-1.24
70	Cc1ccc2nc(-c3ccc(N=Cc4ccccc4)cc3)sc2c1	0.01
71	COc1ccc(S(=O)(=O)Nc2ccc(C(C)=O)cc2)cc1OC	1.04
72	CCOC(=O)c1c(NC(=O)c2cc(OC)c(OC)c(OC)c2Br)sc2c1CCCC2	2.66
73	COc1ccc(C2/C(=C(\O)c3ccc(F)cc3)C(=O)C(=O)N2CCN2CCOCC2)cc1OC (centres undefined)	-0.15
74	Cc1c(C(=O)Oc2ccc(Br)cc2)sc2ncn(C)c(=O)c12	0.29
75	Cc1c(N=Cc2nn(-c3ccccc3)cc2-c2ccccc2)c(=O)n(-c2ccccc2)n1C	-1.12
76	COC(=O)C1=C(N)N(c2ccccc2F)C2=C(C(=O)CC(C)(C)C2)C1c1ccc(OC)cc1 (centres undefined)	0.17
77	O=C(NCCN1CCOCC1)C1CC(=O)N(C2CCCC2)C1 (centres undefined)	1.69
78	CCOC(=O)c1c(C)oc2c1c1c(c3ccccc32)OCN(Cc2ccccn2)C1	0.28
79	CC(=O)Oc1ccccc1C(=O)N1CCN(c2ccc(F)cc2)CC1	0.97
80	CCOC(=O)c1c(NC(=O)c2cc(=O)c3ccccc3o2)sc2c1CCC2	0.2

The listing continues.
No.	Structure	Measles inh
81	CCOC(=O)c1c(NC(C)=O)sc2c1CCCCC2	1.34
82	O=C(OCc1ccco1)C1c2ccccc2Oc2ccccc21	1.47
83	Cc1oc2cc3oc(=O)c(Cc4ccccc4)c(C)c3cc2c1C	-0.41
84	CC(C)(C)OC(=O)C1C(=O)CC(C)(O)C(C(=O)OC(C)(C)C)C1c1ccccc1 (centres undefined)	0.13
85	COc1cccc(C(=O)N2CCN=C2SCc2ccc(Br)cc2)c1	-0.5
86	CCOC(=O)c1cnc2ccc(OC)cc2c1Nc1cccc(Cl)c1C	-0.1
87	COc1ccc(N2C(=N)SCC2=O)cc1	-0.97
88	COc1ccc(-c2nnc(Nc3ccc(OC)c(C(N)=O)c3)c3ccccc23)cc1	0.24
89	COc1ccc(C(=O)CN2CCN(S(=O)(=O)c3ccc(F)cc3)CC2)cc1OC	-0.7
90	CCOc1ccc(NC(=O)CS(=O)(=O)c2cn(Cc3ccc(F)cc3)c3ccccc23)cc1	-1.41
91	O=C1CSC(c2cc3c(cc2Br)OCO3)N1c1ccc(Cl)cc1 (centres undefined)	-0.34
92	COc1ccccc1C(=O)NC(=O)Nc1cccc(Cl)c1	-0.66
93	Cc1ccc(S(=O)(=O)N2CCCC2C(=O)NCc2ccccc2)cc1 (centres undefined)	-0.57
94	Cc1ccc(NC(=O)c2c(C)nc3sc(C(=O)NC4CCCCC4)c(N)c3c2-c2cccnc2)c(C)c1	0.68
95	Cc1cccc(-n2nc3c(c2NC(=O)CCC2CCCC2)CS(=O)(=O)C3)c1C	1.64
96	O=C(c1ccc(NCc2ccc(F)cc2)c([N+](=O)[O-])c1)N1CC2CC(C1)c1cccc(=O)n1C2 (centres undefined)	-1.23
97	CCC(C)N1C(=O)C2C(C(=O)Nc3ccc(C(C)C)cc3)C3C=CC2(O3)C1C(=O)NC1CCCCC1 (centres undefined)	-0.58
98	COC(=O)c1cc(NC(=O)c2ccc(-c3cccc(Cl)c3C)o2)cc(C(=O)OC)c1	-0.42
99	CC1=NN(C(=O)c2ccc(C(N)=O)cc2)C(O)(C(F)(F)F)C1 (centres undefined)	-0.35
100	CCOC(=O)c1c(NC(=O)c2ccc(Cl)c([N+](=O)[O-])c2)sc(C(=O)Nc2ccccc2F)c1C	0.68

Five entries out of the list, arranged by length of the SMILES, high to low.
No.	Structure	Measles inh
96	O=C(c1ccc(NCc2ccc(F)cc2)c([N+](=O)[O-])c1)N1CC2CC(C1)c1cccc(=O)n1C2 (centres undefined)	-1.23
94	Cc1ccc(NC(=O)c2c(C)nc3sc(C(=O)NC4CCCCC4)c(N)c3c2-c2cccnc2)c(C)c1	0.68
95	Cc1cccc(-n2nc3c(c2NC(=O)CCC2CCCC2)CS(=O)(=O)C3)c1C	1.64
86	CCOC(=O)c1cnc2ccc(OC)cc2c1Nc1cccc(Cl)c1C	-0.1
92	COc1ccccc1C(=O)NC(=O)Nc1cccc(Cl)c1	-0.66

More records.
No.	Structure	Measles inh
101	C=CCOC(=O)C1=C(C)NC(C)=C(C(=O)OCC=C)C1c1ccc(C)cc1	0.28
102	CCC1CCCCN1S(=O)(=O)c1ccc2[nH]c(=O)cc(C(=O)O)c2c1 (centres undefined)	-0.64
103	COc1ccc(NC(=O)CCN2CCCN(S(=O)(=O)c3ccc(F)cc3)CC2)cc1	0.4
104	CC1CCCCC1NC(=O)CCCn1c(=S)[nH]c2ccccc2c1=O (centres undefined)	1.95
105	CC1=C(C(=O)OC2CCCCC2)C(c2cccc([N+](=O)[O-])c2)n2ncnc2N1 (centres undefined)	0.86
106	O=C(O)c1ccc2c(=O)n(CC3CCCO3)c(=S)[nH]c2c1 (centres undefined)	-0.87
107	C=CCN(C(=O)c1cc2cc3ccc(C)cc3nc2o1)c1ccccc1	-0.79
108	Cc1ccc(Cn2c(=N)n(CC(=O)c3ccco3)c3ccccc32)cc1	-1.49
109	COc1ccc(Nc2nc(-c3cc4cc(OC)ccc4oc3=O)cs2)c(OC)c1	7.1
110	Cn1c2ccccc2c2nnc(SCC(=O)Nc3ccc(OC(F)(F)F)cc3)nc21	-1.12
111	Cc1cc(C)n2nc(SCC(=O)Nc3ccccc3C(F)(F)F)nc2n1	1.13
112	CC1=C(C(=O)OC2CCCCC2)C(c2ccccc2Cl)C2=C(CCCC2=O)N1 (centres undefined)	-0.7
113	Cc1ccc(CNc2ccc(C(=O)Nc3ccc(C(F)(F)F)cc3)cc2[N+](=O)[O-])cc1	0.48
114	O=C(c1ccccc1)N1CCN(C(=O)c2ccccc2)C2C1N(C(=O)c1ccccc1)CCN2C(=O)c1ccccc1 (centres undefined)	-0.58
115	CCCCNC(=O)CN1CC(=O)N(Cc2ccc(C)cc2)C(c2ccccc2F)C1=O (centres undefined)	0.84
116	CC(=O)N1CCc2cc(S(=O)(=O)NC(CC(C)C)C(=O)Nc3cc(C)ccc3C)ccc21 (centres undefined)	-1.61
117	CC1=C(C(=O)OCCOc2ccccc2)C(c2cccnc2)C2=C(CCCC2=O)N1 (centres undefined)	1.08
118	O=C(NC1CCCCC1)C(c1cc2c(cc1[N+](=O)[O-])OCO2)N1CCOCC1 (centres undefined)	2.08
119	Cc1ccccc1NC(=O)C1c2ccccc2C(=O)N(C)C1c1c[nH]c2ccccc12 (centres undefined)	0.38
